Bioassay records: PubChem, several laboratories
HSV replic up = increases HSV replication in cells; HSV replication augmentation in cells, fold increase; maximum fold increase; hit rate 0.005% among 220,000; AID 1956;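 active means peak rise of 1.5-fold or more in the series; inconclusive means self-fluorescent or not available for retest; tested in PC3 cells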;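 further: first round at 10 µM; read as green reporter fluorescence; hits show the peak of a series up to 25 µM; 1 = signal of infected wells without compound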
PKD1 inh = PKD1 (human) kinase inhibition | PKD1 kinase fluorescence polarization assay | inhibition, %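 (about 10 µM by stock and volumes)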 | hit rate 0.056% among 200,000;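 active means inhibition of 50% or more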;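 further: controls were vehicle for no effect and a reference inhibitor for full effect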
Target sequence (Q15139 whole entry, looked up): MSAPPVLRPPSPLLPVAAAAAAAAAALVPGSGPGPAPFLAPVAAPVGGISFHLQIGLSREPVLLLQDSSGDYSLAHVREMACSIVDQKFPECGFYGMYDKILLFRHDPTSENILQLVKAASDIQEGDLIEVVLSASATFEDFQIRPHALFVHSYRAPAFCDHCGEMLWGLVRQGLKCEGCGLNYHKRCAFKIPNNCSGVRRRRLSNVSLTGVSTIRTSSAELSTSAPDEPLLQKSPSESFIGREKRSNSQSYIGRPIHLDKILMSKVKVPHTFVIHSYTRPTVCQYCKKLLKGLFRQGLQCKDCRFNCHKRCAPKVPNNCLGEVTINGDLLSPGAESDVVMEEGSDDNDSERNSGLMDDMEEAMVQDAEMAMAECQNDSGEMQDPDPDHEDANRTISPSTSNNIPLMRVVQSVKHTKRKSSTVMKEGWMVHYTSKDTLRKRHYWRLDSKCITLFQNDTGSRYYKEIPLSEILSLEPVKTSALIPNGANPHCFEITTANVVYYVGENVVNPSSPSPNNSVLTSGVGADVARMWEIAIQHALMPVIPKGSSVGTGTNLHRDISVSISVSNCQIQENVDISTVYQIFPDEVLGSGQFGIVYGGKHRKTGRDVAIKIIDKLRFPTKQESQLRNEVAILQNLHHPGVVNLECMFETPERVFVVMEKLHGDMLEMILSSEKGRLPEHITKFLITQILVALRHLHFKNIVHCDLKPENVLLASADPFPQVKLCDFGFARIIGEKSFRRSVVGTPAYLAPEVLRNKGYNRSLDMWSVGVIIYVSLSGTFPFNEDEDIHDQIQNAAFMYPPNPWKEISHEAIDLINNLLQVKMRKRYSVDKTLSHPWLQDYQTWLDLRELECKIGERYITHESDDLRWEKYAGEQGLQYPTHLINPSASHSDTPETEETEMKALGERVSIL
GALR2 ag = activates the human galanin receptor 2. GALR2-expressing cells, agonist activation read-out. O43603. activation, %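 (tested at 5 µM)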. hit rate 0.48% among 140,000;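 active means above mean plus 3 SD of all compounds, about 5% in these data, not always enough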;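 further: 0% = vehicle buffer wells and 100% = reference agonist at full effect; tested in CHO reporter cells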
RGS16-Gao = modulates binding between human RGS16 and Galphao; AID 1441; O15492+P09471; binding response (% of control), % at 10 µM; hit rate 0.38% among 220,000; bead-based flow cytometry RGS16-Galphao binding, fluorescence; actives lie on both sides;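 active means below 25% or above 175%, edge rows of some plates excepted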;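 further: Galphao activated by GDP with aluminum fluoride before binding; 100% = wells without compound and 0% = beads without RGS; some results beyond the cut were filed as inactive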
Insulin prom inh = TRM-6 insulin promoter activity inhibition. hit rate 0.9% among 130,000. TRM-6 cells (human fetal islet line), insulin promoter-eGFP reporter, imaging; reporter expression induced with tamoxifen. inhibition, % at 2 µM. AID 1273;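 active means inhibition above the mean plus 3 SD, with well images judged a real hit on visual review, cut at about 60% in these data, passing the limit was not always enough; inconclusive means inhibition over the cutoff but images rejected on review; inactive means inhibition not above the cutoff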
Insulin prom inh cell count = second read-out of Insulin prom inh, no call of its own (marks repeat the call); normalized cell count, %; measured here: cell count, toxicity; reference of the scale not given here;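 cells exposed to compound for 48 h; stained nuclei by imaging scaled within each plate; lower means fewer cells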
HSV replic up primary fold = also measured in HSV replic up; calls as there; fold increase; compound at 10 µM; measured here: primary screen fold increase 10 uM; tested in PC3 cells;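 GFP signal in the first replicate; 1 = infected wells without compound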
* hit, by the source's call; i = inactive; ? = inconclusive; · = no result given; [ ] = remark or other dose.

SMILES	HSV replic up	HSV replic up primary fold	PKD1 inh	GALR2 ag	RGS16-Gao	Insulin prom inh	Insulin prom inh cell count
CC(C)CNC(=O)c1ccc(NC(=O)c2ccccc2[N+](=O)[O-])cc1	i	1	-3	0.6	107	16	190
CCCC(=O)C1=C(O)C(C(=O)OC)C(C)(C)CC1=Nc1ccccc1 (centres undefined)	i	1	0	-0.4	103	-46	108
COc1ccccc1N1CCN(C(=O)Nc2cccc(C)c2)CC1	i	1.1	-3	-2.2	104	19	99
CCOc1cc(C(=O)OCC(=O)Nc2cc(C)on2)ccc1OCC(C)C	i	0.96	-9	·	97	·	·
Cc1cc(C)n(CC(C)Nc2nc3nonc3nc2N2CCCCC2)n1 (centres undefined)	i	0.9	0	·	104	-100	95
NC(=O)C[C@@H]1N[C@]2(C(=O)Nc3ccccc32)[C@@H]2C(=O)N(c3cc(C(F)(F)F)ccc3Cl)C(=O)[C@H]12	i	0.82	0	-3.2	100	-47	60
CNC(=O)C(=O)Nc1ccc(C)cc1C	i	0.97	-6	·	97	·	·
Cc1ccsc1/C=N/N1CCN(c2ccccn2)CC1	i	0.99	·	·	93	·	·
COc1ccc2c(c1)[nH]c1c(=O)n(CCCn3ccnc3)cnc12	i	0.86	-6	-3.0	94	-6	167
CCC(CC)NC(=O)c1cccc([N+](=O)[O-])c1C	i	0.87	-1	0.2	237*[activator]	17	111
O=C(c1cc(-c2ccc(Cl)cc2)on1)N1CCOCC1	i	1.1	-7	-0.6	100	-29	120
CN(C)S(=O)(=O)c1ccc(Cl)c(-c2nnc3n2CCCCC3)c1	i	1	-2	·	95	·	·
Cc1nc2ccccn2c1C(=O)CSc1ccccc1	i	0.97	-1	·	105	20	149
COc1ccc(NC(=S)N2CCCC(CO)C2)c(OC)c1 (centres undefined)	i	0.91	-8	-0.2	104	·	·
O=[N+]([O-])c1ccc(C=Nc2cccc3ccccc23)s1	i	1.1	-6	·	101	·	·
COn1c(-c2ccccc2)nc2c1CCc1nonc1-2	i	0.94	-6	-0.8	95	-3	37
O=C(CSc1nc2ccc(Cl)cc2[nH]1)Nc1ccc2c(c1)CCC2	i	1	-4	-0.3	95	·	·
CCOC(=O)CNC(=O)CSc1nnc(-c2ccccc2OC)n1CC	i	0.85	13	-0.8	104	-54	211
Cn1c(CCc2ccccc2)nnc1SCC(=O)N1CCOCC1	i	0.9	16	-1.1	104	-322	94
O=S(=O)(N1CCOCC1)N1CCN(c2ccccc2F)CC1	i	0.85	1	-0.6	103	1	83
COc1ccc(N2C(=O)CC(N(CCc3ccccc3)C(=O)c3ccccc3)C2=O)cc1 (centres undefined)	i	1.4	·	·	100	·	·
COc1cc(C(=O)O/N=C(\N)c2ccncc2)cc(OC)c1OC	i	0.97	-2	-0.2	101	·	·
Cc1cccc(C2c3[nH]c4ccccc4c3CCN2C(=O)Cc2n[nH]c(C)n2)n1 (centres undefined)	i	1	-4	·	103	·	·
CSCC[C@H](NC(=O)OC(C)(C)C)c1nnc(SCC(=O)Nc2ccc(C)cc2C)o1	i	0.97	-1	-2.5	111	·	·
Cc1nn(Cc2ccc(C(=O)N3CCOCC3)o2)c(C)c1Br	i	0.9	-6	-1.1	91	15	121
CCC(C)[C@H](NC(=O)Nc1cccc(Cl)c1)C(=O)O (some centres undefined)	i	0.98	-10	-1.5	104	-19	131
COc1cccc(-c2nc(CSCC(=O)NCC3CCCO3)c(C)o2)c1 (centres undefined)	i	1.1	-10	-1.9	98	·	·
COc1ccc(S(=O)(=O)N2CCC(C(=O)N3CCCCC3)CC2)cc1OC	i	0.96	5	-2.1	95	·	·
COc1ccc(C(=O)n2nc(C)c(Br)c2C)cc1	i	0.82	-7	-0.6	116	46	51
CC1SCC(=O)N(CC(=O)NCc2ccccc2)C1=O (centres undefined)	i	0.97	4	-0.1	101	·	·
COc1ccc(NC(=O)c2ccc(CNc3c(NC4CCCCC4)c(=O)c3=O)cc2)c(OC)c1	i	0.91	-12	-2.3	97	·	·
Cc1nc(NC(=O)c2ccccc2)sc1C1(C)CC(c2c(Cl)cccc2Cl)=NO1 (centres undefined)	i	0.95	·	·	103	·	·
COc1ccccc1NC(=O)CN(c1ccc([N+](=O)[O-])cc1)S(=O)(=O)c1ccccc1	i	0.95	-2	-0.1	185*[activator]	12	189
O=C(Cc1ccccc1)Nc1ccccc1C(=O)O	i	0.96	4	0.3	19	-21	106
CCc1cccc(CC)c1NC(=O)COC(=O)c1cccc(-c2ccc(OC(C)=O)cc2)c1	i	0.9	-6	-0.9	99	·	·
O=C1c2cccc([N+](=O)[O-])c2C(=O)N1CCO	i	0.99	-5	·	95	29	116
CCCCCOC(=O)C1[C@H]2C(=O)N(c3ccccc3CC)C[C@]23C=C[C@H]1O3 (some centres undefined)	i	0.92	5	0.2	103	·	·
COc1ccc(-c2cc(C(=O)NC3=NCCS3)c3ccccc3n2)cc1OC	i	0.8	-2	·	101	·	·
O=C(NC1CCCCCCC1)c1ccc(CNc2c(N3CCOCC3)c(=O)c2=O)cc1	i	0.92	2	-2.0	111	·	·
Cc1ccc(-n2c(SCC(=O)Nc3ccc4c(c3)OCO4)nnc2-c2cccs2)cc1	?	·	-3	2.9	104	-28	43
COc1ccc(NC(=O)c2ccco2)cc1NC(=O)c1cccc(OC(C)C)c1	i	0.84	-8	1.5	104	·	·
Cc1ccsc1-c1nc(CSCC(=O)N2CCN(c3ccccc3)CC2)c(C)o1	·	·	-2	-1.5	98	·	·
Cc1cccc(OCCC(=O)Nc2c(C)n(C)n(-c3ccccc3)c2=O)c1	i	0.94	0	-1.1	107	57	136
CCN(CC)CCCn1c(C)cc2c(c1=O)C(c1cccc(Cl)c1)C(C#N)=C(N)O2 (centres undefined)	·	·	-7	-3.7	102	33	103
O=C(c1ccc(Cl)cc1)c1oc2ccccc2c1CS(=O)c1ccccc1 (centres undefined)	i	0.89	9	-0.2	82	·	·
CN(C)/C=C/C(=O)Oc1ccc(Cl)cc1Cl	i	0.95	-2	·	102	15	133
Cc1ccc(S(=O)(=O)NC(=O)Nc2ccc(F)cc2)cc1	i	0.95	-4	-0.6	98	38	120
CCCN(CCC)C(=O)CC(c1ccc(F)cc1)c1ccco1 (centres undefined)	i	0.96	-1	-1.0	94	-62	64
CC(=O)OCCn1c(C)[n+](CCOC(C)=O)c2cc(Cl)c(Cl)cc21	i	0.99	-2	·	96	·	·
O=C(CSc1nc2ccc(Cl)cc2[nH]1)c1cccs1	i	1	·	·	98	·	·
More compounds.
SMILES	HSV replic up	HSV replic up primary fold	PKD1 inh	GALR2 ag	RGS16-Gao	Insulin prom inh	Insulin prom inh cell count
CCOC(=O)C1CCCN(C(=O)c2ccc([N+](=O)[O-])cc2)C1 (centres undefined)	i	0.73	7	-1.6	35	42	112
CCCC(=O)Nc1ccccc1NC(=O)CN(C)S(=O)(=O)c1ccc(C)cc1	i	0.95	-12	-0.2	101	-55	39
Cc1ccn2cc(CCNS(=O)(=O)c3ccc([N+](=O)[O-])cc3)nc2c1	i	0.78	·	·	96	·	·
Cc1nn(-c2cccc(Cl)c2)c2c1C(c1ccncc1)C(C#N)=C(N)O2 (centres undefined)	i	0.9	-11	-0.7	102	57	54
CCOC(=O)NCc1cc(-c2nn(C)c(=O)c3ccccc23)ccc1C	i	0.88	0	-2.2	100	-271	79
Cc1ccccc1NC(=O)NCCc1ccc(Cl)cc1	i	1	-2	·	104	-26	91
O=C(O)c1ccc(N2C(=O)c3cccc(Oc4ccc(Cl)cc4)c3C2=O)cc1	i	0.83	-2	-0.4	104	26	94
COc1ccc(OC)c(/C=N/NC(=O)c2cc3c(OC)c(OC)ccc3[nH]2)c1	i	0.71	3	-0.3	107	-28	64
Cc1ccc(C(=O)Nc2ccccc2-c2ccccc2)cc1[N+](=O)[O-]	i	0.82	-13	-0.3	102	13	82
O=c1c2ccccc2cnn1-c1ccc(Cl)nn1	i	1	0	·	114	-53	38
Clc1ccc(Cl)c(Oc2ccc(Oc3nc(Cl)ccc3Cl)cc2)n1	i	0.91	-1	-3.1	102	34	97
CC(Cc1cccnc1)NC(=O)c1ccccc1OC1CCN(S(C)(=O)=O)CC1 (centres undefined)	i	0.85	0	·	113	·	·
COc1nc(N(C)C)nc(N(OC)S(=O)(=O)c2ccccc2Cl)n1	i	0.91	11	-1.7	92	7	123
O=C(CN1C(=O)c2ccccc2S1(=O)=O)NCc1cccnc1	i	0.83	-4	-0.4	95	7	144
O=C(Nc1ccccc1N1CCN(C(=O)c2ccccc2)CC1)c1cc(Br)ccc1Cl	i	0.72	-2	-0.4	102	5	85
CC(C)C(c1nnnn1C1CCCC1)N1c2ccccc2CC1C (centres undefined)	i	0.85	0	-1.8	96	·	·
CCOC(=O)c1cc2c(=O)n3ccccc3nc2n(CC2CCCO2)c1=NC(C)=O (centres undefined)	i	0.88	-3	24*	·	24	83
CN(Cc1cnccn1)Cc1cn(Cc2ccccc2)nc1-c1ccc2c(c1)OCO2	i	0.97	0	·	99	·	·
OC1CCN(Cc2nc(Cc3ccccc3Cl)no2)CC1	i	1	-1	·	116	·	·
CNc1ncc(Cc2ccccc2)s1	·	·	-3	-0.2	141	17	54
CC1=NOC(=O)/C1=C\c1ccc(-c2ccc(Cl)cc2Cl)o1	·	·	-8	5.7	61	·	·
COc1ccc(N=C2SC(C(=O)Nc3ccc(OC)cc3)CC(=O)N2CCN2CCOCC2)cc1 (centres undefined)	i	0.98	21	-0.5	95	0	106
CC(C)c1nc(NCCO)c2nnn(Cc3ccccc3)c2n1	i	0.88	-12	·	102	·	·
CC1(C)Cc2ccccc2-c2nnc(SCc3ccccc3)n21	i	0.82	-8	-2.8	87	-487	47
Cc1ccc(NC(=O)Cn2nnc(C(=O)NCc3ccco3)c2N)cc1	i	1	-1	2.8	102	-12	106
O=C(c1ccc2ccccc2c1)N1CCN(S(=O)(=O)/C=C/c2ccccc2)CC1	i	0.82	-4	·	106	-162	96
CN(C)c1cccc(C(=O)NNC(=O)NC2CCCCC2)c1	i	1.1	5	0.6	103	·	·
COC(=O)/C=c1/s/c(=C(/C#N)C(=O)NCc2ccccc2)n(-c2ccccc2)c1=O	i	1	-3	-1.7	106	41	66
c1ccc(Nc2nc(-c3cccs3)cs2)nc1	i	0.73	-3	-2.0	144	33	177
CCC(C)NCC(=O)Nc1cc(S(=O)(=O)N(CC)c2ccccc2)ccc1Cl (centres undefined)	i	1	3	-3.2	27	-108	108

Compounds listed so far with two or more sulfur atoms (5):
SMILES	HSV replic up	HSV replic up primary fold	PKD1 inh	GALR2 ag	RGS16-Gao	Insulin prom inh	Insulin prom inh cell count
CSCC[C@H](NC(=O)OC(C)(C)C)c1nnc(SCC(=O)Nc2ccc(C)cc2C)o1	i	0.97	-1	-2.5	111	·	·
Cc1ccc(-n2c(SCC(=O)Nc3ccc4c(c3)OCO4)nnc2-c2cccs2)cc1	?	·	-3	2.9	104	-28	43
Cc1ccsc1-c1nc(CSCC(=O)N2CCN(c3ccccc3)CC2)c(C)o1	·	·	-2	-1.5	98	·	·
O=C(CSc1nc2ccc(Cl)cc2[nH]1)c1cccs1	i	1	·	·	98	·	·
c1ccc(Nc2nc(-c3cccs3)cs2)nc1	i	0.73	-3	-2.0	144	33	177

New compounds follow
SMILES	HSV replic up	HSV replic up primary fold	PKD1 inh	GALR2 ag	RGS16-Gao	Insulin prom inh	Insulin prom inh cell count
O=C(CN1C(=O)CSc2ccc(S(=O)(=O)N3CCOCC3)cc21)NCCCN1CCOCC1	i	0.87	-11	·	113	-58	74
O=C(Nc1cccnc1)c1sc(Nc2ccccc2)nc1-c1ccccc1	i	0.74	11	-1.1	104	4	102
Cc1ccc(C)c(N2CCN(S(=O)(=O)c3cccc4cccnc34)CC2)c1	i	1.1	4	·	101	10	61
CCOC(=O)c1c(NC(=S)NC(=O)c2ccc(Cn3cc(Cl)cn3)o2)sc2c1CCC(C)C2 (centres undefined)	i	1	-5	-1.1	101	·	·
O=C(O)C1CC=CCC1C(=O)Nc1ccccc1 (centres undefined)	i	1.1	-1	-2.2	100	33	162
COc1ccc2c(C)cc3nncn3c2c1	i	0.93	-6	·	101	53	108
O=C(Nc1ccc(C(F)(F)F)cc1)N1CCN(c2ccnc3cc(Cl)ccc23)CC1	i	1	·	·	97	·	·
O=C(Nc1ccccc1)OCc1cn(-c2ccc(Cl)cc2)nn1	i	0.87	-6	-2.0	102	-6	118
O=C(CSc1nncs1)NC(=O)NC1CCCC1	i	0.93	0	·	102	0	119
O=C(c1ccccc1)N1CCN(c2ccc([N+](=O)[O-])c(NCc3ccco3)c2)CC1	i	0.88	-11	-1.4	114	·	·
C#CCCCCCCCCC(=O)NCCCC	i	0.88	9	·	99	·	·
